Assay outcomes (PubChem BioAssay)
LASV entry inh – inhibitors of Lassa virus binding or cell entry. Lassa virus pseudotype entry inhibition, cell reporter; control for the full effect not named in the record. Potency, µM (top dose mostly 37.9 µM), inactives show at the top dose activity change, negative = inhibition, hits mostly inhibitors. hit rate 1.2% among 300,000. AID 540256; active means well fitted inhibition curve with a large enough effect; inconclusive means small, poorly fitted or top-dose-only effect, or effect the other way; inactive means flat fitted curve, though single readings scatter; tested in HEK293 cells; further: on the % scale 0 is the no-effect control and ±100 the full control effect; nearly all actives have a fitted effect of over 50% in size; luciferase read-out
SARS PLpro yeast – blocks SARS-CoV papain-like protease in a yeast assay; S. cerevisiae expressing SARS-CoV PLpro, growth rescue; control for the full effect not named in the record; Potency, µM (doses to about 32.9 µM), without a hit: top-dose activity, positive = growth rescue; hit rate 0.19% among 330,000; further: 0% is about no effect; nearly all actives have a fitted effect of over 55% in size; growth read by luminescence after 48 h
MARV entry inh – blocks Marburg virus binding to or entry into cells; Marburg virus pseudotyped entry inhibition, cell reporter; control for the full effect not named in the record; about a third of the inactives were read at about 46 µM; Potency, µM (titrated, usually from 37.8 µM), for inactives: top-dose activity change, negative = inhibition, actives largely listed as inhibitors; hit rate 1.8% among 300,000; active = well fitted inhibition curve with a large enough effect; inconclusive = small, poorly fitted or top-dose-only effect, or effect the other way; inactive = flat fitted curve, though single readings scatter; tested in HEK293 cells; about a fifth of its hits are not listed in these tables; further: on the % scale 0 is the no-effect control and ±100 the full control effect; luciferase read-out
NS1 function inh – inhibitors of influenza NS1 protein function; hit rate 0.4% among 270,000; Potency, µM (highest dose often 46.1 µM), for the others: top-dose activity, positive = more growth; S. cerevisiae slowed by influenza A NS1, growth recovery by OD600; further: actives are rising curves; nearly all actives have a fitted effect of over 50% in size
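OD600 was taken as the measure of yeast growth restored by compound in an NS1-expressing S. cerevisiae strain. Cells had been washed out of glucose medium and diluted 1:100 into galactose -URA medium, pH 6.0.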
Cruzain Triton – blocks cruzain activity in presence of Triton detergent; purified cruzain, Z-FR-AMC fluorescence, 0.01% Triton; Potency, µM, without a hit: max response, negative = inhibition, hits mostly inhibitors; hit rate 0.43% among 200,000; AID 1478; active means well fitted curve in the direction sought with a large enough effect; inconclusive means small, poorly fitted or top-dose-only effect, or another doubt; inactive means no such curve, though single readings can be large; an effect the other way counts as inactive or inconclusive;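 further: plate controls were neutral wells for no effect and buffer without enzyme for full effect; nearly all actives have a fitted effect of over 40% in size; top concentration of the series not given in the record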
Target sequence (P25779 123-467 limits assumed): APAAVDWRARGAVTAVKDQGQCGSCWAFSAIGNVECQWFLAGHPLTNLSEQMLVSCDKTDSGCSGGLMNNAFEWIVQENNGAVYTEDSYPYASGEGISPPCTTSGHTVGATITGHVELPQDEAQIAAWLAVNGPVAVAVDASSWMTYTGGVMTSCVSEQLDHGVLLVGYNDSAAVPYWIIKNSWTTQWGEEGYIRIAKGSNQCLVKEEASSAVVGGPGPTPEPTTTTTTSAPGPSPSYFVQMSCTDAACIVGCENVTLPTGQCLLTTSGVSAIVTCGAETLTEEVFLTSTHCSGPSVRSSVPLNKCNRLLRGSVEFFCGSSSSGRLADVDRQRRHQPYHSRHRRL
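Sodium acetate buffer (100 mM, pH 5.5) containing 5 mM DTT and 0.01% Triton X-100 hosted 1.5 nM cruzain and test compound for 15 min at room temperature. Cleavage of 2 uM Z-FR-AMC was then tracked by fluorescence.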
2A StopGo – FMDV 2A StopGo reporter, luciferase signal. human cells with a luciferase reporter of 2A StopGo recoding; control for the full effect not named in the record. Potency, µM (doses to about 57.9 µM), for the others: top-dose signal change, negative = less light. hit rate 1.2% among 410,000. AID 1159524; active = well fitted falling curve with a large enough effect; inconclusive = small, poorly fitted or top-dose-only effect; inactive = no such curve, though single readings can be large or run the other way; tested in HEK293T cells; further: on the % scale 0 is the no-effect control and ±100 the full control effect; nearly all actives have a fitted effect of over 45% in size; luciferase light after 4 h
Cruzain inh noDet – cruzain (T. cruzi) inhibition without detergent; P25779; purified cruzain, Z-FR-AMC fluorescence, no detergent; Potency, µM, without a hit: max response, negative = inhibition, actives largely listed as inhibitors; hit rate 2.3% among 200,000; AID 1476; active means well fitted curve in the direction sought with a large enough effect; inconclusive means small, poorly fitted or top-dose-only effect, or another doubt; inactive means no such curve, though single readings can be large; an effect the other way counts as inactive or inconclusive;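 further: plate controls were enzyme without inhibitor for no effect and buffer without enzyme for full effect; nearly all actives have a fitted effect of over 40% in size; top concentration of the series not given in the record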
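Detergent-free condition (0.00005% Triton X-100) in acetate buffer pH 5.5 with DTT. 1.5 nM enzyme and compound were pre-mixed 15 min, then 2 uM Z-FR-AMC substrate added; reaction progress from fluorescence change between first and third reads (60 s).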
RE007 growth inh – less growth of the S. pombe RE007 Vpr strain; S. pombe RE007 Vpr strain, BacTiter-Glo ATP luminescence, 24 h; control for the full effect not named in the record; Potency, µM (titrated, usually from 92.2 µM), without a hit: at the top dose activity change, negative = less growth; hit rate 0.21% among 360,000; active = well fitted falling curve with a large enough effect; inconclusive = small, poorly fitted or top-dose-only effect; inactive = no such curve, though single readings can be large or run the other way;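 further: on the % scale 0 is the no-effect control and ±100 the full control effect; nearly all actives have a fitted effect of over 50% in size; the assay follows cell death caused by Vpr and the record does not say whether a fall means rescue or toxicity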
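Fission yeast strain RE007, carrying one chromosomally integrated HIV-1 vpr copy, was seeded at OD 0.01 in PMG+AL medium with 23 nL pinned compound. After 24 h at 30 °C and 99% humidity, viability was read by BacTiter-Glo luminescence.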
* = called active by the depositor; ? = inconclusive; nt = no result given; & = joins results of further samples; [ ] = another dose, or the depositor's remark. Unless noted, the call rests on the fitted dose curve; in most records, active means well fitted rising curve with a large enough effect; inconclusive means small, poorly fitted or top-dose-only effect; inactive means no such curve, though single readings can be large or run the other way. Potency means the concentration at half of the fitted maximal effect.

SMILES	LASV entry inh	SARS PLpro yeast	MARV entry inh	NS1 function inh	Cruzain Triton	2A StopGo	Cruzain inh noDet	RE007 growth inh
CCn1nnc(NC(=O)C(C)(c2ccccc2)c2ccccc2)n1	?	0%	3%[46.1 µM]	4%	nt	5%	nt	20%
Cc1cnc(C(=O)OCC(=O)C23CC4CC(CC(C4)C2)C3)cn1	nt	28%	nt	-12%	nt	0%	nt	10%
COc1ccccc1C(=O)Nc1ccc2nc(SCC(=O)N3CCCC3)sc2c1	-1%[46.1 µM]	nt	7%[46.1 µM]	nt	-1.2%	?	0%	nt
O=C(Cn1nc2sc3ccccc3n2c(=O)c1=O)c1ccc(Cl)cc1	17%	1%	15%[46.1 µM]	-1%	nt	-12%	nt	8%
COc1cc(/C=N/NC(=O)CCc2n[nH]c(=O)[nH]c2=O)cc(OC)c1OC	5%	-13%	-2%	1%	-2.5%	-21%	11%	6%
O=C(CSCc1cnn(-c2ccccc2)c1-n1cccc1)NCc1cccs1	-29%	-15%	9%	-69%	-3.8%	-15%	15%	4%
CSc1nc2cc(C)nn2c(-c2ccc(C(C)(C)C)cc2)c1C#N	8%[46.1 µM]	-1%	2%&2%[46.1 µM]	0%	nt	-1%	nt	15%
CCn1cc(SCC(=O)NC2CCCC2)c2ccccc21	7%	-3%	17%	-16%	nt	13%	nt	-1%
COc1cc(C)c(S(=O)(=O)N2CCOCC2)cc1C	0%	4%	-18%	0%	-2.5%	nt	12%	5%
O=C(O)CCC(=O)NC1CCCCCCC1	9%	-5%	9%	1%	2.4%	-16%	5%	8%
Cc1nc(S(=O)(=O)c2ccc(Cl)cc2)c(N(C)C)o1	nt	6%	nt	20%	nt	10%	nt	1%
Cc1cc(C)n2c(SCCO)nnc2n1	12%[46.1 µM]	0%	0%[46.1 µM]	-2%	nt	-6%	nt	6%
Cc1noc(C)c1S(=O)(=O)Nc1ccc(C(=O)Nc2ccc(C(C)C)cc2)cc1	?	nt	2%[46.1 µM]	nt	-1.4%	-13%	-1%	nt
Cc1ccc2[nH]c(=S)n(-c3cccnc3)c(=O)c2c1	0%	-1%	24%[46.1 µM]	0%	nt	-5%	nt	1%
Cc1[nH]c2ccccc2c1C(=O)C(=O)N1CC2CC(C1)c1cccc(=O)n1C2 (stereo unspecified)	1%	-1%	?	nt	nt	-14%	nt	52%
CC1CCCCC1NC(=O)c1cccc(NC2=NC3CS(=O)(=O)CC3S2)c1 (stereo unspecified)	nt	1%	nt	0%	nt	-9%	nt	-5%
COc1ccc(C(=O)NCC2OCCc3ccccc32)c(O)c1 (stereo unspecified)	0%	-7%	-7%	-68%	-4.0%	46%[activator]	7%	-22%
C=C(C)CCC(C)N1CCC(n2nccc2NC(=O)CCCc2ccccc2)CC1 (stereo unspecified)	nt	2%	nt	-8%	nt	-17%	nt	-4%
CCOc1ccc(-c2nnc3ccc(SCC(=O)Nc4nc5ccc(C)cc5s4)nn23)cc1	?	9%	?	12%	-8.8%	-11%	17%	-3%
Cc1ccc(C2CC(c3cccs3)=NN2C(=O)CCl)cc1 (stereo unspecified)	?	-5%	?	-48%	nt	18µM*	nt	14%
C[C@@H]1CN(c2nc3nonc3nc2N2CCSCC2)C[C@H](C)O1	-18%[46.1 µM]	0%	13%[46.1 µM]	3%	nt	9%	nt	0%
COc1ccc(N=c2oc3c(OC)cccc3cc2C(=O)NCc2ccco2)cc1OC	-8%	-2%	?	-30%	3.9%	-10%	?	-6%
c1ccc(-n2nnnc2SCc2cn3ccccc3n2)cc1	8%	-5%	9%	-4%	-1.3%	11%	-23%	6%
CCOC(=O)C1CCCCN1Cc1ccc(F)c(Br)c1 (stereo unspecified)	1%	5%	13%	0%	4.5%	0%	-6%	-16%
Cc1nc(-c2cccnc2)sc1C(N)=O	1%	2%	0%	10%	-4.0%	-20%	7%	1%
O=C(CSCc1c(Cl)cccc1Cl)Nc1cccnc1	-11%	1%	-1%	nt	nt	-3%	nt	-5%
CCCCCNc1nc(-c2ccccc2)cs1	nt	7%	-8%	-11%	-2.1%	nt	-5%	nt
CC(=O)c1ccc(N2CCN(C(=O)CCS(=O)(=O)c3ccc4c(c3)oc(=O)n4C)CC2)cc1	?	nt	nt	nt	-0.8%	-17%	-3%	nt
CCc1ccc(/C=C2/C(=O)N(CC)C(=S)N2C)s1	8%	-13%	18%	-30%	-4.6%	11%	-4%	-7%
CCC(C)C(=O)Nc1nnc(SCC(=O)NC2CCCCC2)s1 (stereo unspecified)	-11%[46.1 µM]	-3%	-5%[46.1 µM]	-2%	nt	-6%	nt	-12%
O=C(Cn1c2c(c(=O)n3ncnc13)CCC2)N/N=C/c1cccs1	nt	0%	nt	6%	nt	-8%	nt	-1%
Cc1cccc(-c2nc3c4c(-c5ccccc5)c(-c5ccccc5)oc4ncn3n2)c1	-6%[46.1 µM]	nt	4%[46.1 µM]	nt	-2.2%	-15%	14%	nt
O=C(CN1CCN(S(=O)(=O)N2CCCCC2)CC1)Nc1cc(Cl)ccc1Cl	-10%[46.1 µM]	-1%	-8%[46.1 µM]	-1%	nt	-7%	nt	10%
C/C(=N\NC(=O)c1ccccc1)c1ccccc1F	15%[46.1 µM]	2%	?	-6%	nt	32%[activator]	nt	-20%
CC(=NNC(=O)c1ccncc1)c1cc(Cl)ccc1Cl	22%[46.1 µM]	nt	-16%[46.1 µM]	nt	nt	-3%	nt	-15%
COC(=O)c1ccc(CSc2nc3c(cnn3-c3ccccc3)c(=O)[nH]2)o1	1%	7%	18%	0%	0.6%	nt	-10%	-1%
CN(Cc1nc(-c2ccccn2)no1)S(=O)(=O)c1ccc(Br)cc1	-2%	-1%	-1%	-4%	2.5%	-13%	-7%	8%
CC(C)(C)OC(=O)n1cc(/C=N/NC(=O)c2ccco2)c2ccccc21	-19%[46.1 µM]	-1%	-2%[46.1 µM]	0%	nt	-6%	nt	-2%
CCOc1ccc(NC(=O)Cn2c(=O)n(-c3ccc(C)cc3)c(=O)c3cc(OC)c(OC)cc32)cc1	14%[46.1 µM]	nt	-2%[46.1 µM]	nt	-1.7%	-19%	-10%	nt
CCc1ccc(NC(=O)Cn2c(=O)n(-c3cc(C)cc(C)c3)c(=O)c3oc4ccccc4c32)cc1	-5%[46.1 µM]	nt	nt	nt	0.0%	-1%	-5%	nt
CCN(c1ccccc1)S(=O)(=O)c1ccc(Cl)nc1	-10%	4%	3%[46.1 µM]	nt	nt	-10%	nt	-6%
O=C(c1c(F)cccc1F)N1CCN(c2ncc(Br)cn2)CC1	nt	2%	8%	0%	nt	?	nt	39%
CCOc1ccccc1C(=O)Nc1cccc2ccccc12	-3%[46.1 µM]	-6%	-29%[46.1 µM]	3%	nt	4%	nt	-14%
[O-][n+]1onc2c1C(N1CCOCC1)CCC2N1CCOCC1 (stereo unspecified)	20%	-4%	-3%	6%	7.1%	-17%	7%	-10%
CN(C)CCNC(=O)COc1ccc(C23CC4CC(CC(C4)C2)C3)cc1	?	-1%	4µM*	nt	nt	-28%	nt	12%
C=CCOc1c(Br)cc(/C=N\n2nnnc2N)cc1OC	-6%	-3%	-14%	-9%	-2.3%	0%	-8%	nt
Cc1cc2c(cc(C(=O)NCCCN3CCOCC3)n2Cc2ccc(Cl)cc2)o1	-2%	3%	?	10%	-3.5%	-14%	-3%	0%
CCC(c1nnnn1CCOC)N1CCN(c2cccc(C(F)(F)F)c2)CC1 (stereo unspecified)	?	0%	?	?	-0.8%	0%	?	9%
CC(OC(=O)CCCOc1ccccc1)C(=O)NC(N)=O (stereo unspecified)	2%	4%	?	3%	0.5%	13%	-1%	-5%
COc1cccc(CNC(=O)Cn2ncn3cccc3c2=O)c1OC	nt	4%	nt	3%	nt	23%	nt	6%
O=CN(/C=C1\Sc2ccccc2C1=O)Cc1ccccc1	15%	-8%	-11%	-102%	-4.3%	22%	6%	-17%
O=C(CSc1nnc(COc2ccccc2)o1)Nc1nccs1	6%	16%	-17%	?	-0.4%	-18%	4%	-15%
CCN(C(=O)COC(=O)CCS(=O)(=O)c1ccc(C)cc1)C1CCS(=O)(=O)C1 (stereo unspecified)	?	2%	-2%	-6%	nt	-6%	nt	1%
COc1cccc(CN2CCNC(=O)C2CC(=O)N(C)CCc2ccccn2)c1 (stereo unspecified)	4%	-1%	?	3%	nt	-11%	nt	-1%
CCOc1ccccc1-c1nnc(SCC(=O)Nc2ccccc2)o1	2%	-6%	23%[46.1 µM]	-46%	-6.5%	-17%	-6%	3%
Cn1cc(SCC(=O)N2CCCc3ccccc32)c2ccccc21	nt	-23%	nt	-30%	-5.7%	-13%	7%	4%
COCc1c(C(=O)N/N=C/C2CC=CCC2)nnn1-c1nonc1N (stereo unspecified)	20%	10%	0%	5%	-2.7%	-21%	-1%	nt
COc1ccc(C)cc1NC(=O)C1CCN(S(=O)(=O)c2cccc3cccnc23)CC1	0%	-9%	?	-109%	-2.8%	?	-12%	-2%
COCCn1c(SCC#N)nnc1-c1ccccc1O	3%	0%	3%	3%	5.3%	5%	-4%	6%
CC(C)C1=CC(=Nc2ccc(S(N)(=O)=O)cc2)C=C(C(C)C)C1=O	nt	-28%	nt	-104%	nt	-21%	nt	-2%
(more compounds)
SMILES	LASV entry inh	SARS PLpro yeast	MARV entry inh	NS1 function inh	Cruzain Triton	2A StopGo	Cruzain inh noDet	RE007 growth inh
Cc1cccn2cc(CNC(=O)CC3CCCC3)nc12	7%	3%	5%	-4%	3.8%	-24%	2%	-8%
COc1ccc(NC(=O)Nc2cccs2)cc1OC	8%	0%	19%	?	-6.4%	nt	-17%	2%
COc1ccc(CCNC(=O)c2ccc(-c3ccc([N+](=O)[O-])cc3Cl)o2)cc1	-10%	-20%	3%	8%	?	?	-26%	4%
Cc1cc(N2CCN(c3ccccc3)CC2)nc(-n2nc(C)cc2C)n1	36%[14.3 µM]	-5%	?	-213%	2.6%	?	9%	?
CCN(CC)C(=O)c1ccc(C(=O)c2c(C)cc(C)cc2C)cc1	?	-24%	-22%	-66%	2.1%	0%	25%	-14%
